Assay outcomes: PubChem BioAssay, ICCB-Longwood Screening Facility, Harvard Medical School
GIV-Gai inh: GIV-Galpha-i interaction inhibition | P08753 | Galpha-i3/FITC-GIV peptide fluorescence polarization, 90 min; hits give low values; scaled: aluminum fluoride 0%, vehicle 100% | percent of control (FP), % (test concentration not listed) | 210,000 tested, 0.42% active;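 active = replicate mean at 85% of control or lower, very high polarization wells dropped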;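 also: wells of about 15 µL received 100 nL stock; the first replicate is given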
Target sequence (P08753 whole entry, looked up): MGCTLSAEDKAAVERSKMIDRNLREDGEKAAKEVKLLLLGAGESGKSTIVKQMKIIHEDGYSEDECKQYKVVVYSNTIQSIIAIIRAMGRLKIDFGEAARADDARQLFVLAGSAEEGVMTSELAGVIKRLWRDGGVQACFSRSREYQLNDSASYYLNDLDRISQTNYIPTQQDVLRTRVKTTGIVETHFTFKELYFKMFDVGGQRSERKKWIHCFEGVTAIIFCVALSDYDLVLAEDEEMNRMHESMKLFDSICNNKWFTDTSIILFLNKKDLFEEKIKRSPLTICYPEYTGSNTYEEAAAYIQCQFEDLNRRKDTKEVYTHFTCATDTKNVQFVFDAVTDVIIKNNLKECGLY
HCMV NEC inh: cytomegalovirus nuclear egress complex inhibition; AID 1918969; 190,000 tested, 0.15% active; HTRF UL50-UL53 interaction, normalized percent inhibition; inhibition, % (no concentration beside the values);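 active = both replicates at 50% or more, plus weaker picks with an unusually low signal ratio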;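 also: stock transfer was 100 nL into about 20 µL; 0% = negative control wells and 100% = wells with untagged competitor protein; inactives centre near -12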
Sa growth 42C: blocks Staphylococcus aureus growth; S. aureus RN4220 growth, OD600, 20 h, 42 °C; hits give low values; relative growth, % (no concentration beside the values); 170,000 tested, 0.53% active; AID 720641;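 active = growth at 42 °C up to 50% and 20 or more points under that at 30 °C, or under 10% at both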;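 also: 300 nL library stock went into each well; scaled to the means of positive and negative controls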
Sa growth 42C second temp: further read-out of Sa growth 42C, marked with its call; relative growth, %; measured here: growth at 30 °C;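 optical density after 20 h as mean of two plates; 100% = untreated growth and lower means inhibition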
The depositor's hits bear a star; x = not tested or not shown.

SMILES	GIV-Gai inh	HCMV NEC inh	Sa growth 42C	Sa growth 42C second temp
Cc1cc(C)nc(SC2=C(N3CCC(C)CC3)C(=O)N(Cc3ccccc3)C2=O)n1	x	-28.7	82.1	96.5
O=C(N/C(C(=O)N1CCOCC1)=C(\Sc1ccccn1)c1ccccc1)c1ccccc1	x	14.6	82.3	97.2
O=C(CCN1N=C(c2ccccc2)CCC1=O)NC1CCCC1	108.5	x	92.5	93.3
CCOCCCNC(=O)C(Cc1c[nH]c2ccccc12)NC(=O)C1CCC(C)CC1 (stereo not given)	105.9	-25.8	x	x
CN(C)C(=O)c1ccc(S(=O)(=O)NCc2ccc(Cl)cc2)s1	106.8	x	112.2	98.0
Cc1nnsc1C(=O)NC(=O)Nc1cc(Cl)cc(Cl)c1	98.5	11.0	102.6	98.6
CC(C)c1ccc(NS(=O)(=O)c2ccc3[nH]cc(C(=O)NC4CCCC4)c(=O)c3c2)cc1	107.2	-5.2	104.4	49.9
O=C(c1csc(Nc2ccccc2Cl)n1)N1CCCC1	104.7	7.1	106.7	88.8
Cc1cc(C)c(S(=O)(=O)N2CCC3(CC2)Nc2ccc(C)c(C)c2-n2cccc23)c(C)c1	107.0	-31.2	x	x
Cc1cc(C)c2nc(/N=C(\N)NC(=O)C(C)(C)C)nc(C)c2c1	92.5	-15.7	90.9	90.6
CC(=O)Oc1cc2sc(=O)oc2c2ccccc12	104.7	11.8	97.4	99.4
Cc1ccsc1C(=O)OCc1nc2sc3c(c2c(=O)[nH]1)CCCC3	x	-7.3	76.7	97.8
CCOC(=O)Cn1c2c(sc1=O)C(c1ccc(Cl)cc1)C1C3CCC(C3)C1S2 (stereo not given)	100.9	x	86.6	88.0
CC1(C)C2CCC1(C)C(OCC[N+]1(C)CCOCC1)C2 (stereo not given)	102.7	x	98.6	89.5
C=CCNC(=O)c1ccc2nc(-c3ccco3)c(-c3ccco3)nc2c1	103.9	-6.9	80.9	53.3
COc1ccc(CNC(=O)C2=C(c3ccccc3)c3cc(Cl)ccc3S(=O)(=O)N2C)c(OC)c1	107.6	8.8	x	x
COC(=O)C1=C(C)N(Cc2ccccc2)C(=O)NC1c1ccccc1F (stereo not given)	96.1	x	103.3	87.8
CCc1ccc(NC(=O)C2CCCN(S(=O)(=O)c3c(C)noc3/C=C/N(C)C)C2)cc1 (stereo not given)	103.8	-22.0	99.2	82.1
N#C/C(=C(\O)c1ccco1)c1nc2ccccc2[nH]1	97.9	4.7	102.6	122.5
CCC12CN3CC(CC)(CN(C1)C3c1ccc(C(C)C)cc1)C2=O (stereo not given)	99.2	x	84.9	101.3
O=C1COc2ccc(S(=O)(=O)N3CCN(C(=O)NC4CCCCC4)CC3)cc2N1	103.0	-6.7	x	x
CC1C2CC(C(S(=O)(=O)N3CCOCC3)C2=O)C1(C)C (stereo not given)	x	-3.9	91.4	92.8
O=C(NCC(=O)N1CCN(S(=O)(=O)c2ccc3c(c2)OCCCO3)CC1)c1ccccc1	x	-16.3	106.0	81.0
CCOC(=O)c1cnn(-c2ccc(OC)cc2)c1-c1ccncc1	101.8	-30.1	x	x
O=C(CSc1ncnc2ccccc12)NCCC1=CCCCC1	x	13.6	114.9	100.4
CCOc1ccc(NC(=O)CCS(=O)(=O)c2ccc3c(c2)CCCN3C(=O)CC)cc1	95.8	-0.5	128.5	102.9
COc1ccc(N=Cc2ccccc2Br)cn1	x	-34.0	86.8	87.4
COc1ccccc1CNC(=O)c1ccc(-c2nc(CS(=O)c3ccc(C)cc3)c(C)o2)cc1 (stereo not given)	111.4	x	75.7	88.8
COc1ccccc1CNC(=O)CCc1c(C)c2cc3c(C)c(C)oc3cc2oc1=O	106.0	30.2	95.6	99.5
Cn1cc(-c2csc(N)n2)c2ccccc21	131.6	-20.9	x	x

Some of these compounds in order of number of heavy atoms, largest number first:
SMILES	GIV-Gai inh	HCMV NEC inh	Sa growth 42C	Sa growth 42C second temp
COc1ccc(CNC(=O)C2=C(c3ccccc3)c3cc(Cl)ccc3S(=O)(=O)N2C)c(OC)c1	107.6	8.8	x	x
CCOc1ccc(NC(=O)CCS(=O)(=O)c2ccc3c(c2)CCCN3C(=O)CC)cc1	95.8	-0.5	128.5	102.9
CC1C2CC(C(S(=O)(=O)N3CCOCC3)C2=O)C1(C)C (stereo not given)	x	-3.9	91.4	92.8

The listing picks up; the six compounds before the break are reprinted first.
SMILES	GIV-Gai inh	HCMV NEC inh	Sa growth 42C	Sa growth 42C second temp
O=C(CSc1ncnc2ccccc12)NCCC1=CCCCC1	x	13.6	114.9	100.4
CCOc1ccc(NC(=O)CCS(=O)(=O)c2ccc3c(c2)CCCN3C(=O)CC)cc1	95.8	-0.5	128.5	102.9
COc1ccc(N=Cc2ccccc2Br)cn1	x	-34.0	86.8	87.4
COc1ccccc1CNC(=O)c1ccc(-c2nc(CS(=O)c3ccc(C)cc3)c(C)o2)cc1 (stereo not given)	111.4	x	75.7	88.8
COc1ccccc1CNC(=O)CCc1c(C)c2cc3c(C)c(C)oc3cc2oc1=O	106.0	30.2	95.6	99.5
Cn1cc(-c2csc(N)n2)c2ccccc21	131.6	-20.9	x	x
O=C(c1csc(S(=O)(=O)N2CCC(C(=O)N3CCN(c4ccccc4)CC3)CC2)c1)N1CCCC1	109.6	-17.5	x	x
Cc1ccc(S(=O)(=O)Nc2cccc(-c3ccc(N4CCCC4)nn3)c2)c(C)c1	105.9	x	111.8	90.6
COc1ccc(C2C=C(c3ccc(Cl)cc3)Nc3nc(NC(=O)CCC(=O)O)nn32)cc1 (stereo not given)	104.7	-53.9	91.6	80.8
COc1ccc(S(=O)(=O)Nc2ccc(S(=O)(=O)N3CCCC3)cc2)cc1Cl	102.1	5.6	90.5	97.7
O=C(CN(CC1CCCO1)S(=O)(=O)c1ccc(S(=O)(=O)N2CCOCC2)cc1)Nc1ccccc1 (stereo not given)	98.6	-7.3	97.2	104.6
COc1ccc(-c2cc(C(F)(F)F)n3nc(C(=O)N4CCN(C)CC4)c(Cl)c3n2)cc1OC	105.1	-56.2	x	x
Cc1nc2ccc(S(=O)(=O)NC(C(=O)N3CCn4c3nc3ccccc34)C(C)C)cc2s1 (stereo not given)	99.2	x	97.1	89.4
CC(C)COc1ccc(C(=O)Oc2cccc(-n3cnnn3)c2)cc1	102.8	-19.4	x	x
CC1(C)CC(NC(=O)NC(=O)c2c(F)cccc2F)CC(C)(C)N1	x	6.7	92.5	94.1
Cc1[nH]n2c(=O)c3c(nc2c1-c1ccccc1)CCC3	x	3.2	106.5	85.8
Cc1cc(C)c2c3c(oc2n1)C(=O)N(c1cccc(C(F)(F)F)c1)CC(=O)N3	106.3	5.4	105.9	98.6
O=C(CCCCn1c(=O)[nH]c2ccsc2c1=O)N1CCCCC1	101.0	x	99.5	90.7
Clc1nccc2nc(N3CCCC3)ncc12	111.3	-41.0	88.3	80.5
Cc1ccc(N2C(=O)C=CC2=O)cc1	x	-3.4	61.6	69.8
Nc1nc2n(n1)C(c1ccc(Br)cc1)C=C(c1ccccc1)N2 (stereo not given)	x	-43.5	74.3	48.5
CNC(=O)c1ccc(/C=C2/Oc3ccccc3N(Cc3cccc(C)c3)C2=O)cc1	103.0	x	107.7	91.2
Cc1cc(-c2nnc(C(F)(F)F)o2)ccc1NC(=O)c1cccs1	95.1	-7.1	124.0	105.0
CC(=O)Oc1ccccc1C(=O)Oc1ccc(C#N)cc1	99.8	-10.0	105.9	100.8
CCC(=O)Nc1ccc2nc(C3CC3)n(Cc3ccc(Cl)cc3)c(=O)c2c1	108.2	5.5	91.9	73.9
CCOC(=O)N1CCC(NC(=O)c2cc(C(=O)NCC(OC)OC)ccc2CO)CC1	103.1	-10.7	106.3	90.0
Cc1nc2ccccn2c1-c1csc(Nc2ccc(Br)cc2Br)n1	x	-5.7	107.0	94.0
COc1ccc(-c2nc(CSCC(=O)NCCc3ccccc3)c(C)o2)cc1	106.1	17.6	94.0	81.8
O=C1CC(C(=O)N(Cc2ccccc2)c2ccccc2)CN1Cc1ccco1 (stereo not given)	x	-29.3	110.5	93.1
CCc1cccc(CC)c1NC(=O)c1ccc2c(c1)CCN2S(=O)(=O)c1ccccc1	105.1	-27.0	94.7	84.5
CCN1C(=O)/C(=C/c2nc3ccccc3c(=O)n2-c2ccccc2[N+](=O)[O-])c2ccccc21	98.8	-13.5	x	x
CCOc1cc(C2C3=C(CC(c4ccc(OC)cc4)CC3=O)Nc3onc(C)c32)ccc1O (stereo not given)	104.7	-12.5	x	x
Cc1ccc(COC(=O)c2cccn2C)cc1	x	-6.7	103.6	103.6
CCOC(=O)C1CCN(c2ccccc2CN2CCC(c3ccccc3OC)CC2)CC1	106.3	-4.8	96.8	92.8
CCC(=O)NC(=S)Nc1cc(-c2nc3ccccc3o2)ccc1OC	105.7	x	132.9	67.8
Cn1c(C(C#N)S(=O)(=O)c2ccc(Br)s2)nc2ccccc21 (stereo not given)	x	-7.6	75.1	77.6
CC(NC(=O)CN1C(=O)COc2ccc(S(=O)(=O)N3CCCCCC3)cc21)c1ccccc1 (stereo not given)	105.7	-31.4	98.8	86.2
O=C(c1cn(CCOc2ccccc2F)c2ccccc12)C1CCCCC1	105.8	-27.8	75.9	90.6
COc1ccc(C2CC(=O)C3=C(C2)Nc2ncnn2C3c2ccc(OC)cc2)cc1 (stereo not given)	99.7	-34.0	x	x
O=C(NC1CC(=O)N(c2ccc(F)cc2)C1)c1ccc(S(=O)(=O)N2CCCC2)cc1 (stereo not given)	97.3	x	118.2	88.9
COc1ccc(C(=O)OCC(=O)N2CCCCC2)cc1	x	-21.6	81.6	92.8
CC(C)CNC(=O)c1ccc2c(c1)C(=O)N(C1CCCCC1)C2=O	104.5	-29.8	113.4	97.2
CCCSc1ncc(Cl)c(C(=O)Nc2nc(C)c(C(=O)OCC(C)C)s2)n1	101.2	x	90.2	89.0
COc1cc2c(cc1OC)CN(Cc1cc(=O)n3c(-c4ccccc4)csc3n1)CC2	x	-13.5	121.1	99.4
COc1ccc(-n2cnc3cc(C(=O)NCc4ccccn4)ccc32)cc1	104.4	-38.7	78.5	68.7
CCOC(=O)C1=C(C)NC(=O)C1	102.1	-27.7	94.8	81.6
Cc1nc(=O)c(-c2ccccc2)c(C)n1Cc1ccccc1	x	9.6	93.4	94.8
CCc1ccnc(NS(=O)(=O)c2ccc(C)c(Cl)c2)c1	96.0	-17.3	92.8	88.5
Nc1[nH]c(=O)[nH]c(=O)c1N=Nc1ccc2c(c1)OCCO2	x	-78.0	78.0	92.4
CCCc1cc(=O)[nH]c(SC/C=C/c2ccccc2)n1	101.8	6.2	103.5	89.0
COCCn1ccc2nc(C)c(C(=O)NCC3CCCO3)cc2c1=O (stereo not given)	103.7	-25.2	x	x
O=C(O)c1cccc(NC(=O)c2cc3c([nH]c2=O)CCCC3=O)c1	90.8	-10.2	x	x
CN(C)c1ccc(-c2cc(-c3ccccc3)c(C#N)c(N)n2)cc1	139.1	9.1	68.2	103.2
CSc1c(C#N)c(N)nc2sc(C(=O)c3ccc(F)c(F)c3)c(N)c12	105.1	-2.4	103.2	78.2
O=C(CCSCc1cnn(-c2ccccc2)c1-n1cccc1)N1CCOCC1	103.5	x	101.9	78.5
CCOc1ccc(CNC(=O)c2cc3c(=O)n(Cc4cccs4)ccc3nc2C)cc1	108.7	x	98.6	106.7
Cc1c(NC=O)c(=O)n(-c2ccccc2)n1C	103.2	-42.0	101.1	85.3
CCOC(=O)CCc1c(C)nc2nc(CNc3cccc(Cl)c3)[nH]n2c1=O	103.5	-32.7	x	x
Cc1ccc(-n2c(=O)[nH]c3sc4c(c3c2=O)CCNC4)cc1C	104.3	8.1	103.7	81.4
COc1ccc(C2C(C#N)=C(N)Oc3n[nH]c(-c4ccc(OC)c(OC)c4)c32)cc1O (stereo not given)	110.0	-16.7	x	x
CCOC(=O)c1ccc(N2C(=O)c3n[nH]c(-c4ccco4)c3C2c2ccccc2OC)cc1 (stereo not given)	100.6	-11.2	91.1	65.3
